HCMV NEC inh = disrupts HCMV UL50-UL53 complex binding | actives 0.15% (n = 190,000) | inhibition, % (no concentration beside the values) | HTRF UL50-UL53 interaction, normalized percent inhibition;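 active = both replicates at 50% or more, plus weaker picks with an unusually low signal ratio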;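 also: stock transfer was 100 nL into about 20 µL; 0% = negative control wells and 100% = wells with untagged competitor protein; inactives centre near -12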
Sa growth 42C = blocks Staphylococcus aureus growth | S. aureus RN4220 growth, OD600, 20 h, 42 °C; hits give low values | relative growth, % (concentration not given with the values) | actives 0.53% (n = 170,000);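 active = growth at 42 °C up to 50% and 20 or more points under that at 30 °C, or under 10% at both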;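 also: 300 nL library stock went into each well; scaled to the means of positive and negative controls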
GIV Gai3 FP = GIV-Galpha-i interaction inhibition; AID 1224905; Galpha-i3/FITC-GIV peptide fluorescence polarization, 90 min; hits give low values; scaled: aluminum fluoride 0%, vehicle 100%; actives 0.42% (n = 210,000); percent of control (FP), % (concentration not given with the values);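 active = replicate mean at 85% of control or lower, very high polarization wells dropped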;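 also: wells of about 15 µL received 100 nL stock; the first replicate is given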
Target sequence (P08753 whole entry, looked up): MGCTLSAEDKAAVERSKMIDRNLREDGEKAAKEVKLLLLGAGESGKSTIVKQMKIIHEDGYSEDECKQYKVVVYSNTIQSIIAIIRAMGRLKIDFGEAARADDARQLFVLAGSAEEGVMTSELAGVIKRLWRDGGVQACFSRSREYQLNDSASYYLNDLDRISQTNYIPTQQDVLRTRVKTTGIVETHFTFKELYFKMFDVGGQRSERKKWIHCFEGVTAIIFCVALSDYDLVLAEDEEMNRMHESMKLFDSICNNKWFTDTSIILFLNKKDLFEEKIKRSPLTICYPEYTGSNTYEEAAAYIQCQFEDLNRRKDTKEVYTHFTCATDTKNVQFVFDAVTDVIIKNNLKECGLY
Sa growth 42C second temp = further read-out of Sa growth 42C, marked with its call; relative growth, %; measured here: growth at 30 °C;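 optical density after 20 h as mean of two plates; 100% = untreated growth and lower means inhibition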
An asterisk follows results filed as active; / = no result given; & = joins results of further samples.

Key to letters – A = HCMV NEC inh; B = Sa growth 42C; C = Sa growth 42C second temp; D = GIV Gai3 FP
Cc1c(C(=O)N(C)C)sc2c1c(=O)n(-c1ccc(F)cc1)c(=O)n2Cc1cc(=O)n2ccccc2n1
  A: /	B: 121	C: 99	D: 103

COc1cccc(C(=O)Nc2cccc(OCc3cc(=O)n4cc(C)ccc4n3)c2)c1
  A: /	B: 91	C: 90	D: 97

CCOC(=O)c1nc(Nc2ccc(C(F)(F)F)cc2)c2ccccc2n1
  A: -1	B: /	C: /	D: 108

COc1ccccc1CNc1cc(C)nc2nc(-c3ccc(C)cc3)nn12
  A: /	B: 81	C: 83	D: 93

COc1cccc(CCNC(=O)C2CCCN(c3nc4ccccc4n(Cc4ccccc4)c3=O)C2)c1 (stereo unspecified)
  A: 24	B: /	C: /	D: 105

COc1ccc(C2c3c(n(C)c4ccccc34)C(=O)N2CC(=O)Nc2c(C)cccc2C)cc1 (stereo unspecified)
  A: -3	B: /	C: /	D: 108

C=CC[n+]1cc(-c2ccccc2)n2c1CCCCC2
  A: -17	B: 108	C: 77	D: /

Cc1ccc(CCNC(=O)c2cc3sccc3n2Cc2ccc(Cl)cc2)cc1
  A: -26	B: 109	C: 94	D: 99

N#Cc1ccc(N2Cc3ccccc3C2=NC(=O)c2cccs2)cc1
  A: -6	B: 94	C: 87	D: /

Cc1ccc(-c2nnc(Sc3nc4ccccc4o3)c3ccccc23)cc1
  A: /	B: 94	C: 87	D: 99

CCN(CC)c1ccc(NC(=O)C2CCN(c3nnc(-n4cccc4)s3)CC2)c(C)c1
  A: /	B: 97	C: 86	D: 104

CCc1ccc(C2CC(=O)Nc3c2c(C)nn3-c2nc(C)cc(C)n2)cc1 (stereo unspecified)
  A: -6&6	B: 91	C: 71	D: 99&100

C=CCn1c(=O)c(=O)n(Cc2ccc(C(=O)NCCCOCC)cc2)c2ccccc21
  A: -7	B: /	C: /	D: 99

CCOc1ccc(S(=O)(=O)N(CC(=O)N2CCCCC2)c2ccccc2)cc1
  A: 3	B: 112	C: 76	D: 101

Cc1ccnc2nc(C(=O)NCCN3C(=O)S/C(=C\c4ccc5c(c4)OCO5)C3=O)nn12
  A: -37	B: 87	C: 95	D: /

COC(=O)c1cc(Cl)ccc1NC(=O)Cn1ccn2nc(-c3ccc(Cl)cc3)cc2c1=O
  A: -21	B: /	C: /	D: 105

Cc1cc(Br)c2c(c1)C(O)(C1C(=O)Nc3ccccc31)C(=O)N2C (stereo unspecified)
  A: 13	B: 92	C: 83	D: 105

COC(=O)c1[nH]nc2c1C(=O)N(C1CCCCC1)C2=O
  A: /	B: 84	C: 73	D: 98

Cc1ccc(N2CCN(C(=O)c3cnn(-c4ccc(F)cc4F)c3C3CCN(C(=O)OC(C)(C)C)CC3)CC2)c(C)c1
  A: /	B: 105	C: 101	D: 110

CCn1c(=S)[nH]c2ccccc2c1=O
  A: -3&23	B: 100&93	C: 76&89	D: 104

O=c1[nH]c2ccc(NCc3ccccc3)cc2[nH]1
  A: -24	B: /	C: /	D: 100

O=C(NCC1CCN(Cc2ccccc2F)CC1)Nc1ccccc1F
  A: -32	B: 92	C: 80	D: 102

O=C(CCCn1c(=O)c2sccc2n(Cc2ccc(F)cc2Cl)c1=O)NCc1ccc2c(c1)OCO2
  A: 2	B: 91	C: 88	D: 106

O=C(O)/C=C/c1ccc(S(=O)(=O)N2CCN(CCN3C(=O)C4C5C=CC(C5)C4C3=O)CC2)cc1 (stereo unspecified)
  A: -36	B: /	C: /	D: 101

COc1ccc(OC)c(NC(=O)CSc2nc3nc(C)c(Cc4ccccc4)c(C)n3n2)c1
  A: /	B: 111	C: 82	D: 102

O=C(CCc1ccc(-n2cnc3cccnc32)cc1)NCc1ccccc1
  A: -4	B: /	C: /	D: 119

CCCn1c(=O)c2sccc2n2c(CCCC(=O)N3CCN(c4ccccn4)CC3)nnc12
  A: -14	B: /	C: /	D: 109

Cc1nn(C)c2ncc(C(N)=O)c(Oc3cccnc3)c12
  A: -30	B: 103	C: 90	D: 98

Cc1ccc(-n2c(C3CC3)n[nH]c2=S)c(C)c1
  A: 11	B: 94	C: 91	D: 100

Cc1ccc2nc(NC(=O)c3cc(=O)c4cc(Cl)ccc4o3)sc2c1
  A: -16	B: 103	C: 80	D: 105

COc1ccc(-c2nnc(SCC(=O)c3ccc([N+](=O)[O-])cc3)o2)cc1OC
  A: -38	B: 87	C: 87	D: 105

Cc1ccc2c(CC(=O)N3CCN(c4cccc(Cl)c4)CC3)coc2c1
  A: -4	B: 116	C: 90	D: 108

CC(NC(=O)CSc1n[nH]c(-c2ccccc2)n1)c1nc2ccccc2n1C (stereo unspecified)
  A: /	B: 95	C: 91	D: 105

CCc1ccc2nc(N3CCC(C(=O)NCc4ccc5c(c4)OCO5)CC3)sc2c1
  A: -8	B: /	C: /	D: 99

COc1ccc(NC(=O)CN2C(=O)C(C)(C)c3ccccc32)cc1
  A: -13	B: /	C: /	D: 110

CC(=O)NS(=O)(=O)c1ccc(NC(=O)CN2C(=O)C3CC=CCC3C2=O)cc1 (stereo unspecified)
  A: -10	B: 114	C: 88	D: /

CCOc1ccc(C2C(C(=O)Nc3nc4ccc(Br)cc4s3)=C(C)NC3=C2C(=O)CC(C)(C)C3)cc1 (stereo unspecified)
  A: -16	B: /	C: /	D: 102

CS(=O)(=O)c1ccc(Cl)c(NC(=O)C2CC(=O)N(Cc3ccccc3)C2)c1 (stereo unspecified)
  A: -11	B: 95	C: 93	D: /

Cc1ccc(Cc2nc3ccccc3nc2SCC(=O)Nc2ccc3c(c2)OCO3)cc1
  A: /	B: 82	C: 87	D: 101

CCOc1ccc(-c2cc(CCCC(=O)NCc3ccccc3)no2)cc1
  A: 10	B: 93	C: 100	D: 107

O=C(NCc1ccccc1Cl)C(NS(=O)(=O)c1cccc2nsnc12)c1ccccc1 (stereo unspecified)
  A: -110	B: /	C: /	D: 97

COC(=O)c1ccccc1S(=O)(=O)NC(=O)Nc1nc(C)c2c(n1)CCSC2
  A: -28	B: 90	C: 95	D: 104

CC(C)c1nc(=S)[nH][nH]1
  A: -16	B: 71	C: 84	D: /

CCOc1ccc(CNC(=O)CCCn2nc(C)c3sc4ccccc4c3c2=O)cc1
  A: -16	B: 98	C: 85	D: 103

Cc1oc(-c2ccccc2)nc1CN1CCN(C(=O)Nc2ccccc2)CC1
  A: 7	B: /	C: /	D: 110

COc1ccc(-n2cc3c(=O)n(C)c(=O)n(C)c3c2)cc1
  A: -6	B: 90	C: 77	D: 104

O=C(O)c1ccc(/C=N/n2cnnc2)cc1
  A: -5	B: 59	C: 83	D: 107

CCCCSc1nnc2c(n1)OC(c1cc3c(cc1Cl)OCO3)Nc1ccccc1-2 (stereo unspecified)
  A: -28	B: /	C: /	D: 105

Cc1ccc(CN2C(=O)c3ccccc3NC2c2ccccn2)cc1 (stereo unspecified)
  A: 2	B: 91	C: 97	D: /

Cc1ccc2c(c1)N(C(=O)CN1C(=O)C3CCCC3=Nc3cc(C)c(C)cc31)CCO2 (stereo unspecified)
  A: -25	B: /	C: /	D: 109

Four structures out of the list, sorted by molar mass, largest number first:
Key to letters – A = HCMV NEC inh; B = Sa growth 42C; C = Sa growth 42C second temp; D = GIV Gai3 FP
O=C(NCc1ccccc1Cl)C(NS(=O)(=O)c1cccc2nsnc12)c1ccccc1 (stereo unspecified)
  A: -110	B: /	C: /	D: 97

Cc1ccc(CN2C(=O)c3ccccc3NC2c2ccccn2)cc1 (stereo unspecified)
  A: 2	B: 91	C: 97	D: /

COc1ccc(-n2cc3c(=O)n(C)c(=O)n(C)c3c2)cc1
  A: -6	B: 90	C: 77	D: 104

CC(C)c1nc(=S)[nH][nH]1
  A: -16	B: 71	C: 84	D: /

Remaining list, next part:
Key to letters – A = HCMV NEC inh; B = Sa growth 42C; C = Sa growth 42C second temp; D = GIV Gai3 FP
c1ccc(C2Oc3ccccc3C3CC(c4cccnc4)=NN32)cc1 (stereo unspecified)
  A: -38	B: 87	C: 90	D: 101

CCOC(=O)COc1ccc2c(=O)c(-c3ccccc3OC)c(C(F)(F)F)oc2c1
  A: 10	B: /	C: /	D: 102

COc1ccc2nc(NC(=O)c3nc(S(=O)(=O)Cc4ccc(C)cc4)ncc3Cl)sc2c1
  A: -18	B: 102	C: 88	D: 102

c1ccc(CNCc2ccco2)cc1
  A: -16	B: 111	C: 78	D: 101

CSCn1c(C)nc2ccccc21
  A: -14	B: 99	C: 84	D: 101

CCOc1ccc(-c2nc3c(c(SCC(=O)OC)n2)Cc2cccc(OCC)c2O3)cc1
  A: /	B: 92	C: 85	D: 100

N#CCOC(=O)C1COc2ccccc2O1 (stereo unspecified)
  A: -6	B: 87	C: 91	D: /

O=C(CSc1nnc(-c2ccccc2)c(-c2ccccc2)n1)Nc1ccccc1Cl
  A: /	B: 109	C: 82	D: 105

O=C1CCC(=O)N1Cc1c(Cl)cccc1Cl
  A: -42	B: 98	C: 84	D: /

CC(NC(=O)c1cc2c(=O)n3ccccc3nc2n(C(C)C)c1=N)c1ccccc1 (stereo unspecified)
  A: -108	B: 113	C: 91	D: 105

Cc1ccccc1OCc1nnc(SCc2cc(=O)c3cc(F)ccc3[nH]2)n1C
  A: /	B: 98	C: 88	D: 97

O=C(COc1ccccc1)NCC(c1ccccc1Cl)c1c[nH]c2ccccc12 (stereo unspecified)
  A: -13	B: /	C: /	D: 106

CCOC(=O)C1CCN(Cc2cn3c(-c4ccc(OC)cc4)nnc3s2)CC1
  A: /	B: 114	C: 86	D: 99&103

O=C(Nc1ccc(N2CCOCC2)cc1)[C@H](Cc1ccccc1)NS(=O)(=O)c1ccc2c(c1)OCCO2
  A: 8	B: 103	C: 95	D: /

Clc1ccc(C2N=C(c3cnccn3)NN2)cc1 (stereo unspecified)
  A: -44	B: 100	C: 90	D: 103

O=C(CC(=O)Nc1ccc(F)cc1F)Nc1ccc(F)cc1F
  A: 5	B: /	C: /	D: 99

COc1cccc(CN2C(=O)C3(SCC(=O)N3c3ccc(C(C)C)cc3)c3ccccc32)c1 (stereo unspecified)
  A: /	B: 110	C: 74	D: 101

CC1CCCN(C(=O)c2ccc(CSc3nc4ccncc4n3Cc3ccccc3)cc2)C1 (stereo unspecified)
  A: 12	B: 94	C: 89	D: 93

COc1ccc(Nc2c(-c3ccc(N4CCOCC4)cc3)nc3cnccn23)cc1
  A: -21	B: 92	C: 85	D: 100

CN(Cc1ccccc1)C(=O)c1ccc2c(c1)N(Cc1ccccc1)C(=O)c1ccccc1S2(=O)=O
  A: 5	B: 90	C: 99	D: 102

Clc1ccc(Oc2ccc(N=Cc3ccc(I)o3)cc2)cc1
  A: -9	B: 111	C: 94	D: /

Cc1nc2cc(C(=O)O)ccc2n1C1CCCCC1
  A: 4	B: 102	C: 88	D: 101

CCCCN(CC)C(=O)c1sc2nc(C)nc(N3CCOCC3)c2c1C
  A: -16	B: /	C: /	D: 106

CSc1n[nH]c(-c2ccco2)n1
  A: 1	B: 101	C: 107	D: 99

CC(C)C(=O)/C=C1/Sc2ccccc2N1C
  A: /	B: 112	C: 76	D: 103

Cc1cc(N2CCN(c3cc(Cl)ccc3C)CC2)n2nc(-c3ccccc3)nc2n1
  A: -3	B: 87	C: 92	D: 107

Cc1ccc(CNC(=O)c2cnc(N(C)C)nc2)cc1
  A: /	B: 93	C: 96	D: 106

CNc1nc2c(-c3ccc(Cl)cc3)nnn2c2ccccc12
  A: /	B: 85	C: 81	D: 102

CC1(C)OC(=O)NC1=O
  A: -1&-9	B: 99	C: 98	D: /

O=C(c1ccc(S(=O)(=O)N2CCCCC2)cc1)N1CCN(Cc2nc3ccccc3s2)CC1
  A: -5	B: 105	C: 93	D: /

O=c1[nH]cnc2c1ncn2COCCO
  A: -12	B: 99	C: 91	D: 107

CCCCOc1ncnc2c1ncn2CCCl
  A: -6	B: /	C: /	D: 102

Cc1ccc(C(=O)Nc2c(C(=O)NC(C)(C)C)oc3ccccc23)cc1
  A: /	B: 81	C: 88	D: 113

CCOC(=O)c1nnc2cc(-c3cccs3)sc2n1
  A: -28	B: 97	C: 98	D: 106

CCOC(=O)c1c(C)[nH]c(/C(C)=N\O)c1C
  A: /	B: 104	C: 93	D: 104

CC(=O)OC(CN1CCCC1)C(C)(C)C (stereo unspecified)
  A: 8	B: 81	C: 89	D: 109

Cc1cc(C)cc(NC(=O)c2cc(-c3ccco3)nc3ccccc23)c1
  A: -10	B: 109	C: 111	D: 108

Cc1ccc(Oc2ccccc2)c(NC=O)c1
  A: -4	B: 81	C: 87	D: /

Cc1ccccc1-c1nc(CNC(=O)NC2CCCCC2)c(C)o1
  A: /	B: 90	C: 95	D: 102

COc1ccccc1NC(=O)C1CCCN(c2nnc(C)c3c(C)n(-c4ccccc4)nc23)C1 (stereo unspecified)
  A: /	B: 73	C: 92	D: 100

O=C(c1cnn(C(=O)c2ccccc2)c1)c1ccccc1O
  A: 15	B: 102	C: 89	D: /

Cc1nnc2n1N=C(c1ccc(OC(F)F)cc1)C(C)S2 (stereo unspecified)
  A: 8	B: 94	C: 99	D: /

CCSc1nnc(-c2ccc(OC)cc2)n1C1CCCCC1C (stereo unspecified)
  A: -7	B: 95	C: 94	D: /

O=C(Nc1ccc(F)c(F)c1)c1cc(S(=O)(=O)N2CCc3ccccc32)ccc1F
  A: /	B: 100	C: 103	D: 107

Cc1ccc(C(=O)C2C(=O)c3ccccc3C2=O)cc1
  A: /	B: 137	C: 84	D: 98

Screening results deposited in PubChem BioAssay by ICCB-Longwood Screening Facility, Harvard Medical School.
